UCH37 inh = human UCH37 deubiquitinating enzyme inhibition; Q9Y5K5; purified proteasome/UCH37, Ub-AMC cleavage fluorescence; inhibition, % (no concentration beside the values); hit rate 0.33% among 330,000; AID 588478;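 active means mean of two replicates above 20%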;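 further: 0% = compound-free wells with enzyme and 100% = wells lacking proteasome; stock transfer was 100 nL into about 20 µL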
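system = Proteasome-associated human UCH37 deubiquitinase | amount = 0.15 nM proteasome as dispensed | medium = pH 7.4 Tris-HCl (50 mM) with ovalbumin, ATP-MgCl2, DTT | incubation = 30 min preincubation with enzyme, 25 min cleavage at room temperature | detection = AMC fluorescence 355/460 nm | read-out basis = percent inhibition | controls = no-proteasome and no-compound wells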
A1 inh = inhibitors of the anti-apoptotic protein A1, read as caspase activation; MEF A1-2A-BIM cells, Caspase-Glo 3/7 luminescence, 3 h; percent of clofoctol response, vehicle zero; caspase activation, % (test concentration not listed); hit rate 0.066% among 330,000; AID 2462;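 active means over half of replicate activation scores above 10%, or exactly half above 10 with the replicate mean above 10; inconclusive means replicate mean below 10 yet half the replicates above 10; inactive means over half of replicates below 10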;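 further: wells of about 30 µL received 50 nL stock; many hits fall short of the cut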
Vif A3G = inhibitors of Vif binding to APOBEC3G peptide, primary screen, biochemical, TR-FRET, GST-Vif 1-94, biotin-A3G peptide, dose response retest (AID 1117319); TR-FRET GST-Vif / biotin-A3G peptide binding; higher % means a stronger effect; test concentration not given here; strong numbers were not always called active; inhibition, %; hits with a dose series show IC50 in µM; hit rate 0.57% among 260,000;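 active means above the screen mean plus three standard deviations and confirmed in dose response; inconclusive means results disagree or hit not tested in dose response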;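 further: Vif residues 1-94 fused to GST binding biotinylated APOBEC3G peptide 110-148; 0% = full assay without inhibitor and 100% = GST in place of GST-Vif; retest series ran down from 100 µM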
Beta2AR agonist = agonists of human beta-2 adrenergic receptor inducing internalization; AID 504454; response, % (concentration not given with the values); Am2.2-beta2AR cells, FAP receptor internalization, flow cytometry; reference of the scale not given here; hit rate 0.43% among 340,000;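 active means response above a set limit, near 3 SD of response in nonfluorescent compounds, cut at about 42% in these data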;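 further: stock transfer was 100 nL into about 11 µL; a reference agonist was the positive control; negative values mostly stem from fluorescent compounds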
LANA-H2B inh = blocks KSHV LANA binding to histone H2A/H2B; hit rate 0.6% among 320,000; cell-free LANA-H2A/H2B peptide, fluorescence polarization; inhibition, % (test concentration not listed); Q9QR71; in the data active means inhibition mostly above about 10%, no sharp cut-off; inactive means mostly below about 6.7%;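 further: stock transfer was 7.5 nL into about 10 µL; 0% = median of vehicle wells and 100% = median of positive control wells; one replicate is shown; the record names a cut of 25% in any replicate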
Target sequence (Q9QR71 whole entry, looked up): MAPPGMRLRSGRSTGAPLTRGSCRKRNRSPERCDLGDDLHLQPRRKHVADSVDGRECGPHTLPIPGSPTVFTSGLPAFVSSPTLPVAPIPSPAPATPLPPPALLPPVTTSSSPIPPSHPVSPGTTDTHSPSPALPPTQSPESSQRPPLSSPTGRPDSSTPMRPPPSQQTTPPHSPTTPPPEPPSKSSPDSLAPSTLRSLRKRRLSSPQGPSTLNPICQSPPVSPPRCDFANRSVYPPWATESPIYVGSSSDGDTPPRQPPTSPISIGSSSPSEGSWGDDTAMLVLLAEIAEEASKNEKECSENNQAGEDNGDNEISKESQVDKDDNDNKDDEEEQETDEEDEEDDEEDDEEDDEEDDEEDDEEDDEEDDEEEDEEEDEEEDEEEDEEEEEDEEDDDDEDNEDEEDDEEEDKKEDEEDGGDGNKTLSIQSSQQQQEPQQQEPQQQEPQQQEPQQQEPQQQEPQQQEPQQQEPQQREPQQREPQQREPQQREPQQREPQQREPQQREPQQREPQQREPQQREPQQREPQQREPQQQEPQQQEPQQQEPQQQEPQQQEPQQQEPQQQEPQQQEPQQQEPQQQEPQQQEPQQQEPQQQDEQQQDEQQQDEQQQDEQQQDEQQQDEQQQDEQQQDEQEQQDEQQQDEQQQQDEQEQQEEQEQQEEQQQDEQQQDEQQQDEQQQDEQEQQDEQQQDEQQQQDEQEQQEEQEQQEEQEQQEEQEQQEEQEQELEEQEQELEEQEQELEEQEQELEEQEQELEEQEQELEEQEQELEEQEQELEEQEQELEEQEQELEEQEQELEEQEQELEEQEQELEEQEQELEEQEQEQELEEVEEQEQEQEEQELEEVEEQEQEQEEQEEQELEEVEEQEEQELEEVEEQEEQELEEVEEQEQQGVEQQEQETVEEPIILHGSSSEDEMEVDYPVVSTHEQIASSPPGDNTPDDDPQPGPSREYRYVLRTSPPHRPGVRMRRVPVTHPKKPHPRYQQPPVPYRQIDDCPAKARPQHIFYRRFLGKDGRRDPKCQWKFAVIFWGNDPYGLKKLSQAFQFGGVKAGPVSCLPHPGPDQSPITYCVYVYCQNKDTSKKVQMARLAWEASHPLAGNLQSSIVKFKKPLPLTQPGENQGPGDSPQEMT
HNF4A DNA FP = change in binding of human HNF4 alpha to DNA | P41235 | HNF4a-FITC DNA binding, fluorescence polarization, 1 h | activity change, % at 10 µM | hit rate 0.3% among 360,000; in the data active means activity change above about 30%, passing the limit was not always enough;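 further: controls were the assay level and a saturating level of protein; the project sought stronger binding though the title names inhibitors; some compounds called inactive have numbers as strong as hits; positive values seem to mean higher polarization but the record does not say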
Ecoli growth = E. coli growth inhibition; OD600 absorbance (concentration not given with the values); hit rate 0.21% among 330,000; Escherichia coli growth, OD600, 23 h; stronger effect = lower value; AID 1053175;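 active means OD600 absorbance below the run mean of sample wells minus 3.6 SD, in any replicate, cut at about 0.56 in these data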;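 further: stock transfer was 300 nL into about 60 µL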
Active calls of the source: *; ? = inconclusive; . = not tested or not shown; & = joins results of further samples.

SMILES	UCH37 inh	A1 inh	Vif A3G	Beta2AR agonist	LANA-H2B inh	HNF4A DNA FP	Ecoli growth
O=C(NCCCc1ccc(F)cc1)C1CCC(=O)N(CC2CCCCC2)C1 (stereo unspecified)	0.6	-0.3	0.8%	0.0	-4.4	0.4	0.65
CCCCNC(=O)CNC(=S)N(Cc1ccccc1)Cc1cccnc1	5.4	1.8	.	51.7*	-2.8	-2.0	0.662
Cc1cccc(OCCCN2CCCCCC2)c1	1.1	-0.1	3.9%	2.7	2.2	1.2	0.673
COc1cccc(-c2ccc(=O)n(CC(=O)Nc3ccc(C(=O)N4CCCC4)cc3)n2)c1	5.4	-0.5	0.6%	-11.8	-2.2	-0.1	0.714
O=C(CN(Cc1ccco1)C(=O)c1nsc(Cl)c1Cl)NC1CCCCC1	4.7	0.8	10.3%	4.8	-12.7	1.5	0.648
COc1ccc([C@@H]2C[C@H](c3ccccc3)Oc3cc(C)cc(C)c32)cc1	1.7	.	3.5%	-0.3	.	0.1	.
O=C(NCc1cccnc1)c1ccc(CN2CCc3ccccc3C2)cc1	1.1	0.7	-2.5%	6.1	-1.1	-2.5	0.736
CC(=O)Oc1c(Sc2ccccc2[N+](=O)[O-])c(C)nn1C(C)(C)C	3.8	-0.1	-3.6%	3.4	-0.3	-3.9	0.661
CC1CCCC(C)N1C(=O)Cn1c(=O)sc2ccccc21 (stereo unspecified)	5.6	0.6	15.6%	-1.2	0.4	1.4	0.742
NS(=O)(=O)c1ccc(CCNC(=O)CSc2nc3ccccc3c(=O)n2CCN2CCOCC2)cc1	-1.2	0.4	11.1%	-0.5	-2.1	4.4	0.636
CN(C(=O)CSc1cn(CC(=O)N2CCOCC2)c2ccccc12)c1ccccc1	-0.1	1.9	-2.8%	-3.9	4.2	-1.4	0.7
COC(=O)C1C(=O)C2=C(CC1C)NC(C)=C(C(=O)OCCOc1ccccc1)C2c1ccc(C)o1 (stereo unspecified)	-9.8	-0.3	21.8%	-5.1	-2.2	-2.2	0.695
CCOC(=O)N1CCN(C(=O)CNC(=O)c2ccc(Cl)cc2)CC1	0.6	1.0	.	-0.6	-3.0	-0.1	0.686
COCCNC(=O)C(=O)N/N=C/c1ccc(C(=O)OC)cc1	.	-0.3	-5.7%	-0.1	-1.1	1.2	.
CCOC(=O)c1nnsc1NC(=O)Nc1ccc(OC)cc1	-0.2	-0.5	12.7%	-3.8	-6.0	1.7	0.683
COc1cc(C)nc(N2CCCC(C(=O)Nc3cccc(Cl)c3C)C2)n1 (stereo unspecified)	6.0	-0.6	-0.6%	-3.7	0.4	3.3	0.738
O=C(COC(=O)CNS(=O)(=O)/C=C/c1ccccc1)Nc1cccc2ccccc12	1.5	-0.4	-1.4%	11.0	4.3	-4.8	0.667
COc1ccc(C2C(C(=O)c3ccco3)=C(O)C(=O)N2CC2CCCO2)cc1 (stereo unspecified)	12.0	1.6	0.2%	4.3	-0.1	1.4	0.697
NNC(=O)CCCCCCCCCCOCCCCO	0.2	0.2	.	0.8	4.7	1.0	0.691
COc1nc(-c2ccc(Cl)cc2)ccc1-c1noc(-c2ccco2)n1	-11.4	-0.4	-9.8%&-2.3%	5.3	1.0	3.5	0.721
CC(=O)Nc1c([N+](=O)[O-])cc(C)c(Cl)c1[N+](=O)[O-]	2.1	0.5	-1.2%	2.5	2.0	-2.2	0.7
COc1ccc(NC(=O)CN(c2cc(C)cc(C)c2)S(=O)(=O)c2c(C)noc2C)cc1OC	0.2	0.0	-4.2%	-4.9	0.0	-4.5	0.722
CC(NC(=S)Nc1ccccc1Cl)C(c1ccccc1)N1CCOCC1 (stereo unspecified)	4.5	0.1	.	3.7	1.4	0.9	0.717
COc1ccc(NC(=O)CSc2nc(C)cc(C)n2)cc1	2.6	0.5	68.1%	-8.3	1.2	-0.7	0.687
CCN(C(=O)COC(=O)CCC(=O)c1ccc(C)cc1)c1c(N)n(Cc2ccccc2)c(=O)[nH]c1=O	5.4	.	.	3.8	.	-4.8	0.667
O=C1C2C(C(=O)N1CCc1ccccc1)C1C=CC2C12CC2 (stereo unspecified)	2.2	1.1	3.1%	7.2	-1.5	-0.1	0.71
COc1ccc(N=NC2=C(O)CC(C)(C)CC2=O)cc1	8.7	-0.7	-5.7%	-6.3	-9.0	9.7	0.675
O=C(COc1ccc(Cl)cc1)NNC(=S)NCc1ccccc1	6.7	0.1	.	11.4	-1.7	-1.4	0.688
O=C(NC1CCCCC1)C(c1ccc(O)cc1)N(C(=O)c1cnccn1)c1cccc(F)c1 (stereo unspecified)	4.3	1.5	.	-3.8	0.3	-0.8	0.655
Cc1cc(C(=O)CN2C(=O)NC3(CCCCC3)C2=O)c(C)n1Cc1ccco1	0.0	0.4	-4.2%	-3.6	1.0	4.2	0.697

Whole records, looked up by structure. Order of values: UCH37 inh, A1 inh, Vif A3G, Beta2AR agonist, LANA-H2B inh, HNF4A DNA FP, Ecoli growth
Record of NNC(=O)CCCCCCCCCCOCCCCO → 0.2, 0.2, ., 0.8, 4.7, 1.0, 0.691
Record of CCOC(=O)c1nnsc1NC(=O)Nc1ccc(OC)cc1 → -0.2, -0.5, 12.7%, -3.8, -6.0, 1.7, 0.683
Record of Cc1cc(C(=O)CN2C(=O)NC3(CCCCC3)C2=O)c(C)n1Cc1ccco1 → 0.0, 0.4, -4.2%, -3.6, 1.0, 4.2, 0.697

(next part)
SMILES	UCH37 inh	A1 inh	Vif A3G	Beta2AR agonist	LANA-H2B inh	HNF4A DNA FP	Ecoli growth
COc1ccc(NC(=O)COC(=O)CCc2ccc(S(=O)(=O)N3CCOCC3)cc2)c(OC)c1	3.6	0.0	.	2.4	-6.7	-1.0	0.682
Cc1ccc(S(=O)(=O)NC(=O)COc2ccc(Cl)cc2Cl)cc1	1.0	-0.2	.	7.8	-1.4	2.0	0.607
CC(C)CC(=O)OCc1cn(-c2ccccc2)nn1	-1.1	-1.0	4.2%	5.3	0.2	0.5	0.734
O=c1cc(N2CCc3ccccc3C2)[nH]c(=O)n1Cc1ccc(F)cc1	4.5	-0.3	23.5%	-1.4	2.7	1.8	0.671
CC1(c2ccc(OC(F)F)cc2)NC(=O)N(CC(=O)N2c3ccccc3NC(=O)C2(C)C)C1=O (stereo unspecified)	1.4	-0.1	0.9%	1.8	-3.7	2.6	0.655
CCCN(CC(=O)Nc1ccccc1C)C(=O)c1cccc(S(=O)(=O)N2CCN(c3ccccc3)CC2)c1	-2.2	0.5	-3.1%	34.5	2.5	1.1	0.673
CSc1nc(N)c2c3c(sc2n1)COC(C(C)C)C3 (stereo unspecified)	-1.0	0.2	-13.4%	-7.2	5.9	-0.7	0.724
N/C(=N\OC(=O)/C=C/c1ccccc1)c1ccccc1	4.9	-3.7	-4.6%	1.2	5.5	-2.6	0.702
Nc1cc([N+](=O)[O-])ccc1Nc1ccc(O)cc1	.	0.5	17.6%	19.7	-0.1	-1.2	.
O=S(=O)(NCc1ccc(F)cc1)c1cccc(S(=O)(=O)N2CCOCC2)c1	4.1	1.4	5.1%	6.5	12.3	-0.6	0.685
c1ccc(-c2nnnn2CCOCCn2nnnc2-c2ccccc2)cc1	1.5	0.4	4.9%	3.1	-0.2	-1.6	0.662
Cc1cc(C)c(O)c(-c2cc(C(=O)Nc3cccnc3)[nH]n2)c1	1.8	-5.6	3.0%	7.6	3.4	2.6	0.653
O=C(CNC(=O)c1cccc(F)c1)N/N=C/c1cccnc1	.	-2.4	-3.2%	3.7	6.4	-0.7	.
Cc1cc(C)n2nc(SCCC(=O)NCc3ccccc3)nc2n1	0.6	0.6	-1.5%	-12.3	4.1	-0.3	0.724
COc1ccc(-n2nc(C(=O)NCC(=O)Nc3cccc(Cl)c3)c3ccccc3c2=O)cc1OC	-7.0	-0.9	.	16.9	13.5	-1.1	0.684
NC1(C(=O)O)CSSC1	.	.	-10.6%	0.2	.	5.3	.
CN1CCN(C2=Cc3ccccc3Sc3cc(F)c(Cl)cc32)CC1	5.1	0.3	24.6%	24.9	0.7	0.3	0.668
CCOc1nc(-c2ccncc2)nc2ccccc12	0.8	0.6	0.2%&7.8%	-2.5	0.2	3.0	0.699
CC1(C)CC(=O)C2=C(C1)NCN(Cc1ccccc1)C2	4.1	-0.2	0.4%	4.2	3.3	1.2	0.663
CC1(C(=O)NCC2CCCO2)Oc2cccnc2NC1=O (stereo unspecified)	1.5	-0.1	-13.2%	3.5	-2.0	0.8	0.706
O=C(COc1ccccc1O)Nc1ccccc1Cl	2.2	-2.9	30.2%	6.4	1.4	-1.9	0.707
CCCCCCCCNC(=O)c1cccnc1SCC(=O)Nc1ccc(OC)cc1OC	-0.9	0.1	.	1.4	-0.5	-1.5	0.705
NS(=O)(=O)c1ccc(CCN=C(NS(=O)(=O)c2cccs2)c2ccccc2)cc1	-2.3	0.6	5.0%	-3.9	-1.3	-0.2	0.7
CC(C)(O)C(O)COc1c2ccoc2cc2oc(=O)ccc12 (stereo unspecified)	-4.8	0.0	18.1%	-15.3	1.8	2.4	0.666&0.703
N/C(=N\OC(=O)c1ccccc1)C(Cc1ccccc1)C(=O)NOC(=O)c1ccccc1 (stereo unspecified)	7.3	.	4.0%	19.3	.	5.0	0.602
CC1CCC(C#N)(N(C)C(=O)CSc2nnc(C3CC3)n2C2CC2)CC1 (stereo unspecified)	2.4	0.7	.	-0.6	-6.8	2.0	0.659
CCCCn1cc(C(=O)c2cc(Br)ccc2O)cc(C#N)c1=O	4.5	-1.2	23.4%	-1.5	-7.4	0.8	0.698
Cc1ccc2c(c1)c1c(n2CC(O)Cn2nc(C)c(Br)c2C)C(=O)CCC1 (stereo unspecified)	-1.0	0.1	-2.8%	14.8	-0.6	-4.5	0.655
O=[N+]([O-])c1ccc2c(c1)CNc1ccccc1O2	6.3	0.2	-15.6%	1.5	-6.2	1.4	0.706
CCOc1ccc(OCC)c(NS(=O)(=O)c2cccc3nsnc23)c1	4.6	0.3	-2.3%	-3.1	3.5	-0.5	0.746
CN(C(=O)c1ccc([N+](=O)[O-])cc1)c1ccccc1C(=O)NCc1ccccc1	3.0	0.2	.	-3.3	2.4	-0.8	0.697
CC1C(=O)CCCCCCCCCC2C1(N1CCOCC1)CS2(=O)=O (stereo unspecified)	4.8	0.3	8.8%	-3.1	3.0	-1.3	0.688
CC(C)CN1CCN(Cc2cnc(-c3ccc(Cl)cc3)nc2)CC1CCO (stereo unspecified)	2.6	1.2	-2.7%	0.9	1.6	-1.2	0.694
NNC(=O)Cn1nc(Cc2ccccc2)n(N)c1=O	2.1	0.6	.	2.5	-0.1	-0.1	0.701
NC(=S)Nc1ccc(Cl)c(Cl)c1	3.7	-0.2	6.9%	0.4	1.2	-1.4	0.67
Cc1ccc2c(c1)cc(CN(Cc1ccc3c(c1)OCO3)C(=O)c1ccccc1)c1nnnn12	3.5	-0.3	-4.5%	-9.9	2.7	3.3	0.764
O=c1[nH][nH]cc1C=Nc1ccc(Cl)cc1Cl	3.9	1.0	.	0.0	5.7	2.6	0.694
COc1cc(Cl)cc(C2NC(=O)NC(C)=C2C(=O)NCc2ccccc2)c1O (stereo unspecified)	0.7	0.5	?	7.4	-3.5	-0.9	0.616
Cc1nc(-c2ccc(S(=O)(=O)N3CCN(CCc4ccccc4)CC3)s2)cs1	3.4	0.5	23.8%	-2.8	-3.9	-3.3	0.636
COc1ccc(NC(=O)C2CC(=O)N(CCc3ccc(F)cc3)C2)c(OC)c1 (stereo unspecified)	2.4	-0.6	.	10.7	-1.8	3.7	0.716
CC(Oc1ccccc1)C(=O)Nc1c2c(nn1-c1ccccc1)CS(=O)C2 (stereo unspecified)	3.5	0.6	-1.3%	-0.4	-2.3	-1.5	0.706
